AmpC inh no det: Promiscuous and Specific Inhibitors of AmpC Beta-Lactamase (assay without detergent); P00811; AmpC nitrocefin hydrolysis, absorbance 480 nm, no detergent; potencies from a single point are estimates; Potency, µM (titrated, usually from 28.7 µM), inactives show at the highest dose activity change, negative = inhibition; hit rate 1.8% among 71,000; active = falling curve, for most hits resting on a single point; inconclusive = weak or doubtful change; inactive = flat or rising curve; note: % of control where 0% means no effect; about half of the hits show no inhibition at the top dose; a quarter of the inactives give rising signals
Target sequence (P00811 whole entry, looked up): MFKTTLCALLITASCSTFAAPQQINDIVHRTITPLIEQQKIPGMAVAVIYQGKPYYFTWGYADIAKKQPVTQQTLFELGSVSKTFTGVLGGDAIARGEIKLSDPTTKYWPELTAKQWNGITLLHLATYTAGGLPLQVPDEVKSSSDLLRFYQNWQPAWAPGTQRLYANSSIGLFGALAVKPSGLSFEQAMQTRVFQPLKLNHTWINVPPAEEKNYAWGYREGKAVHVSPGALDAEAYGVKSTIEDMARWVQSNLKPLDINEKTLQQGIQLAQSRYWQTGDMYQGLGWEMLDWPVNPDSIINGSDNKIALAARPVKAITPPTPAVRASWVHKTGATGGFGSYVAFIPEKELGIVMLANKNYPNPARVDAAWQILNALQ
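Enzyme, pH 7.0 phosphate. Compound titrations were pre-incubated with AmpC for 15 min at room temperature before nitrocefin (stock 800 uM) addition; product formation was recorded at 480 nm every 20 s for 4 min.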
* = called active by the depositor; u = inconclusive; & = joins results of further samples; [ ] = dose if it differs, or a comment. Potency is the fitted concentration of half-maximal effect.

structure | AmpC inh no det
Cc1cc(C)nc(-n2nc(C)cc2NC(=O)CN2CCC(C)CC2)n1 | 58%
O=C(/C=C/Nc1ccccc1Br)c1ccccn1 | -5%
COc1ccccc1CNc1cc(-c2c(C)noc2C)ncn1 | 14%
COc1ccc(-c2noc(CCC(=O)Nc3nc4ccccc4s3)n2)cc1 | -8%
Cc1noc(C)c1COC(=O)c1cc2c3ccccc3n(C)c2s1 | 40%
Cc1cnc(-c2nnc(N(C)C(=O)C3CCCO3)s2)cn1 (centres undefined) | 1%
CCOC(=O)CNC(=O)c1cc(-c2ccc3c(c2)OCCO3)oc1C | 36%
Cc1ccc(CNC(=O)C2CCN(S(=O)(=O)N3CCOCC3)CC2)cc1 | 11%

The results go on.
structure | AmpC inh no det
COc1cc(-c2noc(-c3cccs3)n2)cc(OC)c1OC | 43%
O=C1Nc2ccccc2OC1CC(=O)N1CCOCC1 (centres undefined) | 3.2µM*[single pt active]
CCn1c(NCc2cccs2)nc2ccccc21 | -4%
C[C@@H]1C[C@@H]2[C@H]3CCC4=CC(=O)C=C[C@]4(C)[C@]3(Cl)[C@@H](O)C[C@@]2(C)[C@@]1(O)C(=O)CO | 11%
Cc1ccc(-c2c(C(=O)N3CCOCC3)oc(=O)c3ccccc23)cc1 | 43%
COCCNS(=O)(=O)c1ccc(SC)cc1 | -3%
CN(C)c1ncc2nc(-c3cccs3)c(=O)n(CCC#N)c2n1 | 4%
CCOc1ccc(NCc2nnc(SCC(=O)Nc3cc(C)on3)n2-c2ccccc2OC)cc1 | 37%

Other results
structure | AmpC inh no det
CCCCN(CC)C(=O)c1cccc(Cl)c1 | 15%
c1ccc(NC2=Nc3ccccc3CS2)cc1 | u
CCc1ccc(NC(=O)CCNS(=O)(=O)c2cccc3nonc23)cc1 | 5%
Cc1ccc2nc(NC(=O)CSc3nc4c(c(=O)n3C)SC(C)C4)sc2c1 (centres undefined) | 15%
CC(C)CC(=O)N=C1SC2CS(=O)(=O)CC2N1CCc1ccccc1 (centres undefined) | 27%
COc1cccc(N2CC(O)=C(c3nc4ccccc4c(=O)[nH]3)C2=N)c1 | 11%
Cc1ccccc1C(=O)N1CCC(C(=O)Nc2ccc(F)cc2)CC1 | 9%
C[C@@]1(C(NC(=O)Cc2ccc(C(F)(F)F)cc2)c2ccc(-c3ccccc3)cc2)C[C@H]1C1CCCCC1 (some centres undefined) | 1%

(more compounds)
structure | AmpC inh no det
CCOC(=O)N1CCC(NC(=O)c2cc3c(C)nc4ccccc4c3o2)CC1 | 111%
CC[C@H](C)C(=O)O[C@@H]1[C@H](O)[C@@H]2[C@H](CN3C[C@@H](C)CC[C@@H]3[C@@]2(C)O)[C@@H]2C[C@@]34O[C@@]5(O)[C@@H](OC(=O)[C@](C)(O)CC)CC[C@@]3(C)[C@H]5[C@H](OC(C)=O)[C@@H](OC(C)=O)[C@H]4[C@]12O | 13%[12.8 µM]
Cc1ccc(C)c(NC(=O)CCn2nc(C)cc2C)c1 | -2%
O=c1c2[nH]c3ccc(F)cc3c2ncn1CCCN1CCOCC1 | 8%
N=C(N)c1ccc(/C=C\c2ccc(C(=N)N)cc2)cc1 | 1%[5.75 µM]
COc1cc(C(=O)N(CCCO)Cc2cc3ccc(C)c(C)c3[nH]c2=O)cc(OC)c1OC | 65%
CCOc1ccccc1NC(=O)C1Cc2ccccc2CN1S(C)(=O)=O (centres undefined) | 30%
Cc1cccc(N2CCN(S(=O)(=O)c3cnc[nH]3)CC2)c1C | 3%

The list goes on.
structure | AmpC inh no det
COc1ccc(C(=O)NC(=O)Nc2cc(C)ccn2)cc1 | -14%
O=C(c1cn(-c2ccccc2)nc1-c1cccnc1)N1CCCCC1 | 45%
CCn1c(SCc2nc(-c3ccccc3)no2)nc2ccccc21 | 15%
CCOC(=O)Cn1c(=O)c2c(nc3n2CCCCN3c2ccc(OCC)cc2)n(C)c1=O | 113%
CN(C)c1ncc2nc(-c3ccccc3)c(=O)n(Cc3ccc(F)cc3)c2n1 | -8%
Cc1ccc(S(=O)(=O)N2C3C=CC(C3)C2C(=O)O)cc1 (centres undefined) | 3%
CCN1CCN(Cc2nc3c(c(=O)n(C)c(=O)n3C)n2Cc2cccc3ccccc23)CC1 | 46%
c1cc(C2N3CCCN2CC3)ccn1 (centres undefined) | 8%[5.75 µM]

(next part)
structure | AmpC inh no det
O=C(Cn1cc2c(n1)CCCCC2)N1CCc2ccccc21 | -3%
O=C(CNCCC1=CCCCC1)Nc1ccccc1N1CCCCC1 | 11%
CCCn1c(SCCc2ccccc2)nc2c1c(=O)[nH]c(=O)n2C | 13%
Cc1cc(C)n(C(=O)c2ccc(S(=O)(=O)N3CCCC3)cc2)n1 | 18%
CCCNC(=O)c1noc2c1CCc1ccccc1-2 | 3.2µM*[single pt active]
Cc1ccc(OCCN2C(=O)OC(C)(C)C2(C)O)cc1 (centres undefined) | 10%
Cc1cccc(CNc2cc(-c3ccccc3Cl)ncn2)c1 | 21%
COC(=O)[C@@]1(Cc2ccc(F)cc2)[C@H]2c3cc(C(=O)N(C)C)n(Cc4ccc(S(C)(=O)=O)cc4)c3C[C@H]2CN1C(=O)c1ccccc1 | 170%

The closing four records of the part before are carried over, then new ones follow.
structure | AmpC inh no det
CCCNC(=O)c1noc2c1CCc1ccccc1-2 | 3.2µM*[single pt active]
Cc1ccc(OCCN2C(=O)OC(C)(C)C2(C)O)cc1 (centres undefined) | 10%
Cc1cccc(CNc2cc(-c3ccccc3Cl)ncn2)c1 | 21%
COC(=O)[C@@]1(Cc2ccc(F)cc2)[C@H]2c3cc(C(=O)N(C)C)n(Cc4ccc(S(C)(=O)=O)cc4)c3C[C@H]2CN1C(=O)c1ccccc1 | 170%
Cc1cc(N2C(=O)CC(Cc3ccccc3)C2=O)no1 (centres undefined) | -4%
Cc1ccc(OCC(O)Cn2c(=N)n(CCN3CCCCC3)c3ccccc32)cc1 (centres undefined) | 12%
CCCOC(=O)CCCCC1SCC(NC(=O)OC)C1NC(=O)OC (centres undefined) | 45%
CC(CN1CCOCC1)OC(=O)c1ccc2c(c1)OCCO2 (centres undefined) | 9%
O=C(CN1CCN(Cc2ccccc2Cl)C1=O)NC1CCCCCC1 | 40%
O=C(OCc1nnc(-c2ccccc2)o1)c1cc(=O)c2ccccc2o1 | 19%
Cc1csc(C(C#N)C(=O)c2cc3ccccc3o2)n1 (centres undefined) | -23%
O=C(NCCCN1CCOCC1)c1ccccc1-c1ccccc1 | 9%

Next part.
structure | AmpC inh no det
O=C(O)c1ccc(F)c(S(=O)(=O)Nc2ccccc2Cl)c1 | -5%
CC1CCN(CCCn2c(=S)[nH]c3ccccc3c2=O)CC1 | -7%
CCn1c(=O)c(C(=O)NCCNCCO)c(O)c2ccccc21 | 1%
CCOc1ccccc1CNC(=O)C1CCCN(c2nc3ccccc3o2)C1 (centres undefined) | 90%
O=C(c1cc(C(F)(F)F)cc(C(F)(F)F)c1)N1CCC2(CCN(Cc3nccs3)CC2)CC1 | 10%
CCOC(=O)c1ccc(NC(=O)CN2C(=O)CSC2=O)cc1 | -3%
COc1ccc(N2CCN(C(=O)COc3ccc4ccccc4c3)CC2)cc1 | 13%
N#Cc1cc(Cl)c(N2CCOCC2)cc1C#N | 2%

More compounds
structure | AmpC inh no det
COc1ccccc1CN1CC[C@@]2(CCCN(S(=O)(=O)c3ccccc3)C2)C1 | 20%
CC(=O)NCCOc1nc(N(C)C)nc(N(C)C)n1 | 4%
CSc1nsc(SCC(=O)NC2CCCCC2)n1 | 48%
COc1ccc(N2CCN(C(CNC(=O)c3ccc4c(c3)OCO4)c3cccnc3)CC2)cc1 (centres undefined) | 52%
COc1cccc(C2=NOC(C(=O)NC3CCCCC3)C2)c1 (centres undefined) | 26%
NC(=O)CCCC1=NS(=O)(=O)c2ccccc2N1 | -13%
Cc1ccc(S(=O)(=O)N2CN3CCN(C3)C2)cc1 | -4%
COc1ccc2c3c([nH]c2c1)[C@H]1C[C@@H]2[C@@H](C[C@@H](O)[C@H](OC)[C@H]2C(=O)O)CN1CC3 | 0%[5.75 µM]

Continued.
structure | AmpC inh no det
O=C1CC(SCCO)C(=O)N1c1ccc(Oc2ccccc2)cc1 (centres undefined) | 20%
CCOC(=O)CNC(=O)COc1ccc(Cl)cc1Br | 20%
COC(=O)C1=CN(C2CC2)C=C(C(=O)OC)C1c1ccc(C(=O)OC)cc1 | 33%
N#Cc1cccc(C(c2nnnn2CCc2ccccc2)N2CCN(C3CCCCC3)CC2)c1 (centres undefined) | 29%
COc1ccccc1C1(O)CC2CCC(C1)N2S(=O)(=O)c1ccc(C(C)=O)cc1 (centres undefined) | 37%
CCOc1ccccc1CN1CCN(S(=O)(=O)CC)CC1 | 14%
CCC(c1nnnn1C1CCCC1)N(Cc1cccs1)Cc1cc2cccc(C)c2[nH]c1=O (centres undefined) | 59%
COc1ccc(/C=N/n2c(SC)nnc2-c2ccccc2)c(OC)c1OC | 120%

Remaining list, next part
structure | AmpC inh no det
CCOC(=O)c1cncc(NC(=O)c2ccccc2)c1 | -12%
O=C(CCCn1c(SCC(=O)c2ccc(Cl)cc2)nc2ccccc2c1=O)NCc1ccco1 | -6%
COc1ccc(CCC(=O)Nc2ccc(-c3noc(-c4ccc(OC)c(OC)c4)n3)cc2)cc1 | -5%
Cc1nn(Cc2ccccc2)c(C)c1NC(=O)c1cc2nc(-c3ccco3)cc(C(F)(F)F)n2n1 | 108%
Cc1cc(C(=O)COC(=O)c2csc3c2CCCC3)c(C)n1C | -1%
C=C(C)Cn1c(C(C)NC(=O)CCC)nc2ccccc21 (centres undefined) | 5%
N=C1C(c2ccc(Br)cc2)=C(O)C2CCc3ccccc3N12 (centres undefined) | -11%
CCOC(=O)c1ccc(CSc2nnc(-c3ccncc3)n2N)cc1 | 20%

(further entries)
structure | AmpC inh no det
Cn1c(=O)n(CCc2ccccc2)c(=O)c2c1nc1n2CCCN1CCc1ccccc1 | 62%
Cc1noc(C)c1C(=O)N1CCC2(CCCN(c3ccccn3)C2)CC1 | 4%
COc1ccccc1Cc1nc(-c2ccc(C)cc2)no1 | 4%
COc1ccc(CNC(=O)C2CCN(S(=O)(=O)c3ccc(-c4nn[nH]n4)cc3)CC2)cc1 | -2%
CC(=O)Nc1ccc(S(=O)(=O)NCc2cn3c(C)csc3n2)cc1 | -14%
O=C(NCc1ccccc1F)C1CCN(C(=O)NCc2ccccc2)CC1 | -4%
CCOC(=O)N1CCN(C(=O)CSc2nnc(Cc3cccn3C)n2CCc2ccccc2)CC1 | 134%
Cc1nc2cnc(N3CCOCC3)nc2n(Cc2cccs2)c1=O | 8%

2 entries from above, as labelled records:
Cn1c(=O)n(CCc2ccccc2)c(=O)c2c1nc1n2CCCN1CCc1ccccc1
  AmpC inh no det: 62%

CC(=O)Nc1ccc(S(=O)(=O)NCc2cn3c(C)csc3n2)cc1
  AmpC inh no det: -14%

Next section.
structure | AmpC inh no det
COc1cc(OC)c(NC(=O)c2ccoc2C)cc1Cl | 2%
CC(C)(C)c1ccc(NS(=O)(=O)c2ccc(N)cc2)cc1 | 1%[5.75 µM]
COC(=O)CN(c1nc(C)cc(OC)n1)S(=O)(=O)c1ccc(C)cc1 | 28%
Nc1cc(=O)[nH]c(SCc2nc3ccccc3n2Cc2ccccc2)n1 | -4%
Cc1nc2ncnn2c(C)c1CCC(=O)N1CCN(c2ccccn2)CC1 | 0%
O=C(CSc1ncn[nH]1)NCCCc1ccccc1 | -4%
COc1cc2c(C(=O)NC3CCCCCC3)cn(C)c(=O)c2cc1OC | 92%
CC1Cc2ccccc2N1Cc1nc2scc(-c3cccs3)c2c(=O)[nH]1 (centres undefined) | u

(more compounds)
structure | AmpC inh no det
Clc1cccc(Cl)c1COc1ccncc1 | -4%
CC1CCN(c2oc(Cc3cccc4ccccc34)nc2C#N)CC1 | 2%
CCn1c(=N)c(S(=O)(=O)c2ccc(F)cc2)cc2c(=O)n3ccccc3nc21 | 35%
Cc1ccc(C(C)C)cc1C(=O)CC1(O)C(=O)N(C)c2ccccc21 (centres undefined) | 38%
Cc1cccc(N(CC(=O)NCc2ccc3c(c2)OCO3)C(=O)CCC(=O)Nc2ccccn2)c1 | 63%
COc1ccc(C2NC(=O)NC(C)=C2C(=O)Nc2cccc(C)c2C)cc1 (centres undefined) | 14%
COc1cc(O)c2c(O)c3c(c4c2c1[C@@]1(C4)C(C)=CCCC1(C)C)[C@H](O)[C@@]1(O)CC(=O)C(C(N)=O)=C(O)[C@]1(O)C3=O | -6%[5.75 µM]
CC1CCN(S(=O)(=O)c2ccc(-c3nnc(SCc4cccnc4)o3)cc2)CC1 | 7%

(more compounds)
structure | AmpC inh no det
CCOc1ccc2nc(NC(=O)CSc3nc4c(c(=O)n(C)c(=O)n4C)n3C(C)C)sc2c1 | 123%
O=C(NCC1CCCO1)C1CCC(CNS(=O)(=O)c2ccccc2)CC1 (centres undefined) | -2%
COc1ccc(-c2nc(=S)c3c(n2CCN2CCOCC2)CC(C)(C)OC3)cc1 | 5%
O=S(=O)(c1ccc(Cl)cc1)c1ccc(Cl)cc1 | -12%&-4%
O=c1cc(-c2ccccc2)[nH]c2ccccc12 | -12%
CCSc1ccccc1C(=O)N1CCN(Cc2ccc3c(c2)OCO3)CC1 | 73%
CCC/C=C(\CCC)C(NC(=O)c1ccc(C(=O)OC)cc1)c1ccc(C(=O)OC)cc1 (centres undefined) | 71%
Cc1nc2sc(C)c(C)c2c(=O)[nH]1 | -1%

Next compounds follow.
structure | AmpC inh no det
CCOC(=O)c1ccc(NC(=O)CN2CCN(CCN=CC3=C(O)CC(C)(C)CC3=O)CC2)cc1 | u
CCCS(=O)(=O)c1c(S(=O)(=O)CCC)c2cnccn2c1C(=O)c1ccc(F)cc1 | 72%
O=C(NCCN1CCN(C(=O)c2cccs2)CC1)c1cccs1 | -5%
COc1ccccc1-n1cnc2cc(NCc3ccco3)ccc21 | 13%

Bioassay records: PubChem BioAssay, National Center for Advancing Translational Sciences (NCATS)

This is a subset (hit frequency here may not be typical).
